rRNA inh HTS: reduced GFP signal of wild-type E. coli, primary screen, bacterial rRNA inhibitor project, GFP/RFP fluorescence, OD600, single point; AID 720706, 2013; GFP signal change (wild-type ribosome), % (no concentration beside the values); E. coli WT GFP vs humanized-ribosome RFP mutants, 24 h; hits give low values; DMSO median 0, no signal -100; actives 1.6% (n = 350,000);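 active means significant combined selectivity score with lowered wild-type GFP, culture density cut under 30%, mutant RFP and density less affected; inactive means any of these conditions unmet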; further: one replicate is shown; some compounds called inactive have numbers as strong as hits
AF4-AF9 inh: inhibitors of AF4 peptide binding to AF9, primary screen, biochemical, AlphaScreen, biotin-AF4 peptide, FLAG-AF9, single point; inhibition, % at 10 µM; actives 0.47% (n = 350,000);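 active means every replicate reaching a set inhibition limit, whatever the replicate mean, cut at about 25% in these data; inconclusive means mean inhibition reaches that limit but some replicates miss it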;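 further: 0% = plate neutral control median and 100% = total signal loss; the record names both 10 and 1 µM as test concentration; the first replicate is given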
Target sequence (P42568 whole entry, looked up): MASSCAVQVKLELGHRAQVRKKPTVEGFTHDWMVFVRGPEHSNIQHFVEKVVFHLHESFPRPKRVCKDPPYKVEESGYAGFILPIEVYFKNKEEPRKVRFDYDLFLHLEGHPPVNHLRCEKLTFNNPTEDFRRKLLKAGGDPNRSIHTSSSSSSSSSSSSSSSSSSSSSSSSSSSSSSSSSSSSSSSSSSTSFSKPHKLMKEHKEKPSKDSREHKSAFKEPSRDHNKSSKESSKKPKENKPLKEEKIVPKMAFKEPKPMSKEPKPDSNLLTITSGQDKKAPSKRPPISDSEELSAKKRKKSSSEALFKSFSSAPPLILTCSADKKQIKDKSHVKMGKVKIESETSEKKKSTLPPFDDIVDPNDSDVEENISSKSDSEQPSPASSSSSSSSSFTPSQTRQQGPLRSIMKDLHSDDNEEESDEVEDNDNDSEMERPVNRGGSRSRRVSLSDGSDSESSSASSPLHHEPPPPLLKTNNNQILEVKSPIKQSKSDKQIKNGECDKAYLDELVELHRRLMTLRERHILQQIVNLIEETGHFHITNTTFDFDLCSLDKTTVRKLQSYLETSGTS
Vif TR-FRET: inhibitors of Vif binding to APOBEC3G peptide, primary screen, biochemical, TR-FRET, GST-Vif 1-94, biotin-A3G peptide, dose response retest (AID 1117319). Virion infectivity factor (Human immunodeficiency virus type 1 group M subtype B (isolate …. actives 0.57% (n = 260,000). inhibition, %, or IC50 in µM where a hit was titrated. TR-FRET GST-Vif / biotin-A3G peptide binding; higher % means a stronger effect; test concentration not given here; strong numbers were not always called active;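 active means above the screen mean plus three standard deviations and confirmed in dose response; inconclusive means results disagree or hit not tested in dose response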;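 further: Vif residues 1-94 fused to GST binding biotinylated APOBEC3G peptide 110-148; 0% = full assay without inhibitor and 100% = GST in place of GST-Vif; retest series ran down from 100 µM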
FGF22 binding: binders of human FGF22 protein, primary screen, FGF22 synaptogenesis inhibitor project, biophysical, thermal shift, single point | Fibroblast growth factor 22 (Homo sapiens), Q9HCT0 | recombinant FGF22 thermal shift, SYPRO orange fluorescence; percent of sucrose octasulfate shift, DMSO zero | calls only at 9.99 µM | actives 1.5% (n = 340,000) | AID 651658, 2012;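 active means melting point raised past a set limit in the mean and every replicate; inconclusive means no clear call; three in four hits are not shown here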
Target sequence (Q9HCT0 whole entry, looked up): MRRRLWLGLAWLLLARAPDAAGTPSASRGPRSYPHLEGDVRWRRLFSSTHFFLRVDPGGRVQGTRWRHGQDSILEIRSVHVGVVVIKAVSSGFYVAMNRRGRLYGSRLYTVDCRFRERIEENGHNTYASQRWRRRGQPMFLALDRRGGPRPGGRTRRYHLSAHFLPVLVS
ALR inh: inhibitors of human ALR sulfhydryl oxidase, primary screen, biochemical, H2O2 detection, HRP-luminol luminescence, single point; purified ALR, DTT oxidation; inhibition, % (no concentration beside the values); actives 3.8% (n = 290,000); AID 485317, 2010; FAD-linked sulfhydryl oxidase ALR (Homo sapiens), P55789;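 active means mean and each replicate at 75% or more; inconclusive means only one of the two met; inactive means neither met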;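 further: stock transfer was 7.5 nL into about 7.5 µL; 0% = neutral wells and 100% = wells with inactivated enzyme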
Target sequence (P55789 whole entry, looked up): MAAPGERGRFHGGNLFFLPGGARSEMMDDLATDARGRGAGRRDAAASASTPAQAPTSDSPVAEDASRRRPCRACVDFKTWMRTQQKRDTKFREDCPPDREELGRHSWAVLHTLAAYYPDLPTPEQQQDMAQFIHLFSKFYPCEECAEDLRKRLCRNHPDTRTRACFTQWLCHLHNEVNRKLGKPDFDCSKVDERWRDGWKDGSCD
HNF4A DNA FP: change in binding of human HNF4A to DNA, primary screen, biochemical, fluorescence polarization, FITC-DNA; Hepatocyte nuclear factor 4-alpha (Homo sapiens), P41235; AID 1224865, 2016; actives 0.3% (n = 360,000); 1 h; activity change, % at 10 µM; in the data active means activity change above about 30%, passing the limit was not always enough;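 further: controls were the assay level and a saturating level of protein; the project sought stronger binding though the title names inhibitors; some compounds called inactive have numbers as strong as hits; positive values seem to mean higher polarization but the record does not say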
E coli growth: E. coli growth inhibition, primary screen, OD600. Escherichia coli growth, 23 h; hits give low values. OD600 absorbance (concentration not given with the values). actives 0.21% (n = 330,000). AID 1053175, 2014;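 active means OD600 absorbance below the run mean of sample wells minus 3.6 SD, in any replicate, cut at about 0.56 in these data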;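 further: stock transfer was 300 nL into about 60 µL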
rRNA inh HTS OD600: second read-out of rRNA inh HTS, no call of its own (marks repeat the call); OD600 change, %; measured here: OD600 growth;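 optical density of the mix in the first replicate; 0 = DMSO median and -100 = no signal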
rRNA inh HTS RFP: recorded beside rRNA inh HTS, whose call it bears; RFP signal change, %; measured here: RFP humanized mutant strains;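 first replicate; 0 = DMSO median and -100 = no signal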
The depositor's hits bear a star; i = inactive; ? = inconclusive; . = no result given; & = joins results of further samples. Some of the compounds tested; the hit share may differ from the screen's.

SMILES	rRNA inh HTS	rRNA inh HTS OD600	rRNA inh HTS RFP	AF4-AF9 inh	Vif TR-FRET	FGF22 binding	ALR inh	HNF4A DNA FP	E coli growth
C=CCOc1ccc(C=CC(=O)c2c(O)c(OC)c(OC)c(OC)c2OC)cc1	3	-23	-1.4	4.7	-4%	i	.	-2.3	0.71
COCC#Cc1ccc([C@H]2[C@H](CO)N3CCCCN(C(=O)CN(C)C)C[C@@H]23)cc1	5	9	-4.0	5.5	.	i	.	.	.
CN1C(=O)c2cc(NC(=O)Nc3ccccc3Cl)ccc2OC[C@H]2O[C@H](CC(=O)NCCCN3CCOCC3)CC[C@H]21	1	7	-0.3	-0.2	.	i	.	.	.
O=C(CN1CCN(C2CCCCC2)CC1)c1ccc2cc[nH]c2c1	10	-1	-1.2	5.3	2%	i	-14	-1.2	0.75
CC(=O)Nc1ccc(-c2csc(NC(=O)Cc3cccc(F)c3)n2)cc1	-5	-34	-6.9	2.6	.	i	.	4.1	0.7
O=C(CCNC(=O)c1ccccc1)OCN1C(=O)c2ccccc2C1=O	.	.	.	.	6%	.	-22	3.4	0.72
O=C(CN1C(=O)S/C(=C\C=C\c2ccccc2)C1=O)NC1CCS(=O)(=O)C1 (centres undefined)	3	-8	-2.9	0.2	.	i	31	2.3	0.67
C[C@@H]1CN([C@H](C)CO)C(=O)c2cc(C#Cc3ccccn3)cnc2O[C@@H]1CN(C)CC1CCOCC1	5	15	-1.0	-1.1	.	i	.	.	.
O=C(O)COc1ccc(/C=N/n2c(COc3ccccc3)nc3ccccc3c2=O)cc1	-9	-9	-1.4	3.1	16%	i	3	-3.2	.
COc1ccc(CN2CCCC(C(=O)c3ccc(SC)cc3)C2)cc1Cn1cccn1 (centres undefined)	-10	-7	4.4	11	12%	i	-4	-4.4	.
C=CCN1N=C(/C=C/c2ccccc2)CCC1=O	5	8	0.7	1.2	-4%	i	-1	2.5	0.71
Cc1[nH]c2ccccc2c1/C=N/Nc1ccc([N+](=O)[O-])cc1	2	-8	-1.5	11	2%	i	-32	68*	.
COC(=O)[C@H](CC(C)C)NC(=O)Cn1cnc(C(=O)Nc2ccc(C)c(C)c2)n1	4	3	-1.6	-3.4	1%	i	.	2.5	0.7
Cc1ccc(Cc2ccc(C(=O)NNC(N)=S)o2)cc1	10	15	4.2	1.5	.	i	36	-3.0	0.69
CSc1ccc(CN2C(=O)NC3(CCCCCC3)C2=O)cc1	2	-5	4.1	-14	-9%	.	9	-0.5	0.68
CCCNC(=O)Nc1ccc2c(c1)OC[C@@H](C)N(Cc1cccnc1)C[C@@H](C)[C@@H](OC)CN(C)C2=O	1	4	-0.4	-3.0	.	i	.	.	.
CCN1C(=O)[C@@H]2[C@@H](c3ccc(-c4ccc(Cl)c(Cl)c4)c(OC)c3)N3CCCC[C@@]3(C(=O)OC)[C@@H]2C1=O	11	21	1.2	-7.2	.	i	2	2.4	.
CCN(CC)S(=O)(=O)c1ccc2oc(C(=O)NCc3ccc(C)cc3)c(C)c2c1	2	-2	4.4	4.3	9%	i	-18	-3.0	0.69
CCC(C)(C)n1nnnc1C(c1ccccc1)N1CCc2ccccc2C1 (centres undefined)	.	.	.	.	-4%	.	.	-0.1	0.74
O=C(CNS(=O)(=O)c1cccs1)Nc1ccc2c(c1)OCCO2	.	.	.	.	-3%	.	.	0.6	0.69
CCCCOC(=O)n1c(SCC(=O)N(CC)CC)nc2ccccc21	.	.	.	.	-1%	.	1	3.4	0.69
COC(=O)c1[nH]c2c(c1C)C(=O)CC(c1ccccc1)C2 (centres undefined)	.	.	.	.	-5%	.	-1	0.2	0.68
CCc1cc(=O)oc2cc(OC(C)C(=O)NCc3ccccn3)ccc12 (centres undefined)	2	2	-3.7	0.5	.	i	-3	0.3	0.68
CC1CCN(CCC(=O)N/N=C/c2ccc([N+](=O)[O-])cc2)CC1	8	-1	-1.4	-0.2	-5%	i	-1	-4.7	.
COc1ccc2c3c([nH]c2c1)[C@H](CO)N(C(C)=O)CC31CN(S(=O)(=O)c2ccccc2)C1	-3	-12	1.3	3.1	.	i	.	.	.
More compounds follow.
SMILES	rRNA inh HTS	rRNA inh HTS OD600	rRNA inh HTS RFP	AF4-AF9 inh	Vif TR-FRET	FGF22 binding	ALR inh	HNF4A DNA FP	E coli growth
O=c1c2c(nc3nc(SCc4ccccc4)[nH]n13)CCC2	.	.	.	.	3%	.	6	2.1	0.69
C[C@H](CO)N1C[C@H](C)[C@H](CN(C)C(=O)Cc2ccccn2)Oc2ncc(C#CC3CCCC3)cc2C1=O	1	4	-1.0	-1.4	.	i	.	.	.
O=C1C(=NO)CC(c2ccccc2)N1c1ccccc1 (centres undefined)	2	-3	0.3	0.3	-5%	i	.	-2.6	0.65
O=C(NC1CCN(Cc2ccccc2)CC1)C1CCN(S(=O)(=O)c2cccc3cccnc23)CC1	17	11	-1.9	-1.9	.	i	18	0.9	0.75
COC(=O)CN(C(=O)CSc1nnc(-c2cccc(OC)c2)o1)c1ccc(OC)cc1	.	.	.	.	1%	.	-9	0.3	0.64
COC(=O)C[C@H]1C[C@@H]2c3cc(NC(=O)NC4CCCC4)ccc3O[C@@H]2[C@H](CO)O1	0	-1	-1.0	0.1	.	i	.	.	.
CCN(CC)CCOC(=O)CCc1cccc2ccccc12	.	.	.	.	7%	.	-8	-0.7	0.74
CC(C)C#Cc1ccc([C@H]2[C@@H](C#N)N(C(=O)C3CC3)[C@@H]2CO)cc1	-2	2	3.2	-0.7	.	i	.	.	.
C[C@@H]1CN([C@H](C)CO)C(=O)c2cc(NC(=O)Cc3ccccc3)ccc2O[C@@H](C)CCCCO[C@@H]1CN(C)S(C)(=O)=O	3	2	0.3	-19	.	i	.	.	.
O=C(NCc1ccc(Cl)cc1)c1cc2c(s1)CS(=O)(=O)C2	3	4	-0.4	1.8	.	i	-4	4.8	0.63
Cn1ncc2c(O/N=C(\N)c3ccc(C(C)(C)C)cc3)ncnc21	.	.	.	.	-6%	.	-4	0.6	.
CCCn1c(=S)[nH]c2cc(Cl)ccc21	-2	-1	-2.6	-48	10%	i	51	1.2	0.68
COc1cccc(-c2nc(CS(=O)(=O)CC(=O)NCCCOC(C)C)c(C)o2)c1	.	.	.	.	7%	.	94*	1.6	0.69
Cc1nnc(SCC(=O)N2c3ccccc3C(C)(c3ccc(Cl)cc3)CC2(C)C)s1 (centres undefined)	.	.	.	.	.	.	-1	-3.6	0.75
CN(C)c1cccc2c(S(=O)(=O)NCc3ccc(S(N)(=O)=O)cc3)cccc12	11	-12	1.4	-15	-5%	i	-32	1.3	0.71
CC(=O)Nc1nnc(SCC(=O)Nc2ccc(N3CCOCC3)c(Cl)c2)s1	12	6	-3.1	-4.7	-6%	i	-5	2.7	0.71
CCCCn1c(CN2CCN(CCO)CC2)nc2ccccc21	.	.	.	.	1%	.	.	1.0	0.71
O=C(O)c1ccc(N/N=C2/CCSc3ccc(F)cc32)cc1	-13	-34	-7.4	7.7	.	i	98*	-6.8	.
CC(C)NC(=O)Nc1ccc2c(c1)C(=O)N([C@H](C)CO)C[C@H](C)[C@H](CN(C)S(C)(=O)=O)OCCCC[C@@H](C)O2	4	7	-1.4	-2.1	.	i	.	.	.
CCOc1ccc(CCNc2nc3ccccc3n3c(C)nnc23)cc1OCC	4	8	-3.0	-2.6	-12%	i	-14	4.2	0.64
CCOc1ccc2oc(C(=O)OCC(=O)NC(=O)NC3CCCC3)c(C)c2c1	.	.	.	.	?	.	-6	5.0	0.7
CCOc1cccc(C2C(C(=O)c3ccc(C)o3)=C(O)C(=O)N2c2nnc(C)s2)c1 (centres undefined)	8	9	0.7	7.8	.	i	.	-0.7	.
Cc1ccc(C(=O)N(c2ccccn2)C(C)c2ccco2)cc1C (centres undefined)	.	.	.	.	10%	.	97*	-1.8	0.68
Cc1oc(-c2ccccc2Cl)nc1CS(=O)CC(=O)NCCCN1CC(C)CC(C)C1 (centres undefined)	5	0	3.5	0.8	.	i	89*	-1.2	.
C[C@@H]1CN([C@@H](C)CO)C(=O)Cc2cc(NS(=O)(=O)c3ccc(F)cc3)ccc2O[C@@H]1CN(C)Cc1ccc(C(=O)O)cc1	8	7	-0.4	-4.3	.	i	.	.	.

Molecules shown so far that contain a COOH group:
SMILES	rRNA inh HTS	rRNA inh HTS OD600	rRNA inh HTS RFP	AF4-AF9 inh	Vif TR-FRET	FGF22 binding	ALR inh	HNF4A DNA FP	E coli growth
O=C(O)COc1ccc(/C=N/n2c(COc3ccccc3)nc3ccccc3c2=O)cc1	-9	-9	-1.4	3.1	16%	i	3	-3.2	.
O=C(O)c1ccc(N/N=C2/CCSc3ccc(F)cc32)cc1	-13	-34	-7.4	7.7	.	i	98*	-6.8	.
C[C@@H]1CN([C@@H](C)CO)C(=O)Cc2cc(NS(=O)(=O)c3ccc(F)cc3)ccc2O[C@@H]1CN(C)Cc1ccc(C(=O)O)cc1	8	7	-0.4	-4.3	.	i	.	.	.

Next section
SMILES	rRNA inh HTS	rRNA inh HTS OD600	rRNA inh HTS RFP	AF4-AF9 inh	Vif TR-FRET	FGF22 binding	ALR inh	HNF4A DNA FP	E coli growth
COc1ccc(C(=O)C(C)[n+]2ccc(C)c3ccccc32)cc1[N+](=O)[O-] (centres undefined)	19	-2	5.0	7.7	.	i	-7	2.1	0.63
Cc1ccc(S(=O)(=O)Nc2ccc3c(c2)CC(=O)N([C@H](C)CO)C[C@@H](C)[C@H](CN(C)C(=O)Nc2ccc(C(F)(F)F)cc2)O3)cc1	0	-9	-0.2	5.4	.	i	.	.	.
CCCc1cc(=O)[nH]c(SCC(=O)N(C)Cc2ccccc2)n1	.	.	.	.	-5%	.	-3	-2.2	0.71
CCC(C(=O)OCC(=O)Nc1cc(Cl)cc(Cl)c1)c1ccccc1 (centres undefined)	-25	-36	3.9	-7.2	-3%	i	-4	1.9	0.65
COC(=O)C1=CN(c2ccc(OC)cc2)C=C(C(=O)OC)C1c1cc(OC)c(OC)cc1OC	12	10	6.9	-1.1	0%	i	.	0.9	0.67
COc1ccccc1CNS(=O)(=O)c1c(C(=O)N2CCCCC2)c(C)n(C)c1C	3	5	-0.7	2.7	-4%	i	0	2.0	0.71
Cc1ccc(-c2cc(C(=O)Nc3c(C#N)cnn3C)no2)cc1	1	4	1.4	5.6	10%	i	3	1.3	0.66
O=C(Nc1ccc(S(=O)(=O)Nc2ncccn2)cc1)c1ccc(N2CCCC2=O)cc1	19	19	13	-1.7	14%	i	-7	1.2	0.71
Cc1ccc(NC(=O)COC(=O)C2(C)CC2(Cl)Cl)cc1S(=O)(=O)N1CCOCC1 (centres undefined)	-8	-12	-0.8	-5.1	9%	i	.	2.0	0.69
COc1ccc(N2C(=O)/C(=C/c3cccs3)NC2=S)cc1	19	7	-2.5	7.3	-2%	i	9	1.1	0.71
C[C@@H]1CN([C@@H](C)CO)C(=O)CCCn2nncc2CO[C@@H]1CN(C)C(=O)NC1CCCCC1	2&2	12&13	-0.3&-3.3	3.5&-0.1	-6%	i	.	-2.8	.
COc1ccc(C(=O)NC2CCc3ccccc32)cc1OC1CCN(C(C)=O)CC1 (centres undefined)	3	1	0.1	-12	.	i	0	2.2	0.69
CCOc1cc(/C=N/NC(=O)c2nnn(-c3nonc3N)c2C)ccc1OCc1ccc(C)cc1	5	26	-5.4	-1.1	-3%	i	.	25	.

Source: PubChem BioAssay
